Anthrax LT inh = qHTS Assay for Anthrax Lethal Toxin Internalization; Potency, µM (titrated, usually from 40 µM), without a hit: at the top dose activity change, negative = inhibition, usual class: inhibitors; Cells, anthrax lethal toxin internalization, FRET ratio (460/530); 70,000 tested, 0.67% active; active = well fitted falling ratio curve with the 530 nm signal flat; inconclusive = other ratio curves, or a change in one channel alone; inactive = flat curves in the ratio and both channels; the % refers to the ratio; also: % is scaled to controls: 0 for no effect and ±100 for the full control effect; nearly all actives have a fitted effect of over 50% in size; tested in ME-180 cells; beta-lactamase reporter
Prx2 Sm inh = Schistosoma Mansoni Peroxiredoxins (Prx2); AID 448, 2006; Schistosoma mansoni peroxiredoxin 2 (Prx2); S. mansoni Prx2 activity coupled to TGR/GSH (TGR is thioredoxin glutathione reductase), NADPH fluorescence loss, qHTS; some inactives read as strong as hits; Potency, µM; 65,000 tested, 0.07% active; active means full or partial inhibition curve with a strong effect at the top dose; inconclusive means weaker partial or single-point curve; inactive means no accepted curve; also: series up to 57 µM; many of its hits are not listed in these tables
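Enzyme mix: 100 uM NADPH, 25 nM TGR, 700 uM GSH, 50 nM Prx2 in 100 mM phosphate pH 7.4, 10 mM EDTA, 0.01% Tween-20. 15 min RT with compound; NADPH/GSH added, H2O2 starts reaction; NADPH fluorescence read 8 min.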
Starred values were filed as active, the others as inactive; & = joins results of further samples; [ ] = remark or other dose. Potency is read from the fitted curve at half-maximal effect. Some of the compounds tested; rates above refer to the full screens.

What do the screens show for `CC(C)CCn1c(=S)[nH]c2ncccc2c1=O`?
Anthrax LT inh: 6%; Prx2 Sm inh: >57

How did Cc1ncc(CO)c2c1OC(C)(C)OC2 do in these assays?
Anthrax LT inh: 13%; Prx2 Sm inh: >57

Results for O=C(c1cc2ccccc2cc1OCC(O)CN1CCCCC1)N1CCCCC1 (centres undefined) ?
Anthrax LT inh: -12%; Prx2 Sm inh: >57

Results for COc1ccc(-c2ccc(=N)n(CCCC(=O)O)n2)cc1 ?
Anthrax LT inh: inconclusive; Prx2 Sm inh: >57

What do the screens show for `O=C(Nc1nccs1)C1CCN(S(=O)(=O)c2cccnc2)CC1`?
Anthrax LT inh: 0%; Prx2 Sm inh: >57

Results for CCCc1cc(=O)[nH]c(SCC(=O)NC2CCCCC2)n1 ?
Anthrax LT inh: -4%

Results for Cc1cc(=O)oc2cc3c(cc12)OCCN3 ?
Anthrax LT inh: inconclusive

How did COn1c(=O)c(-c2ccc(Cl)cc2)[n+]([O-])c2ccccc21 do in these assays?
Anthrax LT inh: inconclusive; Prx2 Sm inh: >57

Results for O=C(c1ccccc1)N1CCN(CC2CC=CCC2)CC1 (centres undefined) ?
Anthrax LT inh: inconclusive; Prx2 Sm inh: >57

How did C/C(CCN1CCCCc2nc(C)c(C)cc21)=N\O[C@@H](C)CN1CCCc2nc(C)c(C)cc21 do in these assays?
Anthrax LT inh: -22%[8 µM]

Results for NS(=O)(=O)c1ccc(N=Nc2ccc[nH]c2=O)cc1 ?
Anthrax LT inh: -4%[8 µM]; Prx2 Sm inh: >57

Results for c1ccc2cc3c(cc2c1)-c1cccc2cccc-3c12 ?
Anthrax LT inh: inconclusive

How did Cc1ccc(OCC(=O)N(Cc2ccc(N(C)C)cc2)C2CCS(=O)(=O)C2)cc1 (centres undefined) do in these assays?
Anthrax LT inh: -15%; Prx2 Sm inh: >57

What do the screens show for `Cc1ccc(C)c(-n2c(SCC(=O)Nc3nonc3C)nnc2-c2ccoc2C)c1`?
Anthrax LT inh: inconclusive; Prx2 Sm inh: >57

Results for COc1ccccc1N(CN1CCCC1=O)C(=O)c1ccccc1F ?
Anthrax LT inh: -3%; Prx2 Sm inh: >57

What do the screens show for `N=C(N)c1ccc(N=Nc2c(O)ccc3c2[nH]c2ccccc23)cc1`?
Anthrax LT inh: inconclusive; Prx2 Sm inh: >57

How did COc1cc(NC(=O)Cn2c(-c3cncs3)nc3ccccc32)cc(OC)c1OC do in these assays?
Anthrax LT inh: -17%; Prx2 Sm inh: >57

Results for Brc1c(OCCOCCn2cncn2)ccc2ccccc12 ?
Anthrax LT inh: 10%; Prx2 Sm inh: >57

Results for COc1cc(/C=N\n2nnnc2N)ccc1OCc1ccc(F)cc1 ?
Anthrax LT inh: -16%; Prx2 Sm inh: >57

Results for CC(=O)Nc1ccc(S(=O)(=O)N2CCN(C(=O)CCC3CCCC3)CC2)cc1 ?
Anthrax LT inh: inconclusive; Prx2 Sm inh: >57

Structures shown so far that contain sulfur:
What do the screens show for `CC(C)CCn1c(=S)[nH]c2ncccc2c1=O`?
Anthrax LT inh: 6%; Prx2 Sm inh: >57

What do the screens show for `O=C(Nc1nccs1)C1CCN(S(=O)(=O)c2cccnc2)CC1`?
Anthrax LT inh: 0%; Prx2 Sm inh: >57

Results for CCCc1cc(=O)[nH]c(SCC(=O)NC2CCCCC2)n1 ?
Anthrax LT inh: -4%

Results for NS(=O)(=O)c1ccc(N=Nc2ccc[nH]c2=O)cc1 ?
Anthrax LT inh: -4%[8 µM]; Prx2 Sm inh: >57

How did Cc1ccc(OCC(=O)N(Cc2ccc(N(C)C)cc2)C2CCS(=O)(=O)C2)cc1 (centres undefined) do in these assays?
Anthrax LT inh: -15%; Prx2 Sm inh: >57

What do the screens show for `Cc1ccc(C)c(-n2c(SCC(=O)Nc3nonc3C)nnc2-c2ccoc2C)c1`?
Anthrax LT inh: inconclusive; Prx2 Sm inh: >57

How did COc1cc(NC(=O)Cn2c(-c3cncs3)nc3ccccc32)cc(OC)c1OC do in these assays?
Anthrax LT inh: -17%; Prx2 Sm inh: >57

Results for CC(=O)Nc1ccc(S(=O)(=O)N2CCN(C(=O)CCC3CCCC3)CC2)cc1 ?
Anthrax LT inh: inconclusive; Prx2 Sm inh: >57

Next part.
What do the screens show for `CC1Cc2ccccc2N1C(=O)CCN1C(=O)C2C3C=CC(C3)C2C1=O` (centres undefined)?
Anthrax LT inh: 9%; Prx2 Sm inh: >57

How did CCCNS(=O)(=O)c1ccc(CCC(=O)NCC2CCCO2)cc1 (centres undefined) do in these assays?
Anthrax LT inh: 2%; Prx2 Sm inh: >57

How did COc1ccccc1NS(=O)(=O)c1ccc(C)c(C(N)=O)c1 do in these assays?
Anthrax LT inh: 7%; Prx2 Sm inh: >57

Results for O=c1ccc(-c2ccccc2)n[nH]1 ?
Anthrax LT inh: 0%[8 µM]; Prx2 Sm inh: >57

How did COCCn1nnnc1CN(CCCN1CCOCC1)Cc1cc2c(C)ccc(C)c2[nH]c1=O do in these assays?
Anthrax LT inh: -11%; Prx2 Sm inh: >57

How did ClC(Cl)(Cl)C(N1CCN(c2ccccc2)CC1)N1CCN(c2ccccc2)CC1 do in these assays?
Anthrax LT inh: inconclusive; Prx2 Sm inh: >57

What do the screens show for `Cc1nc2ccccc2n1-c1ccccc1`?
Anthrax LT inh: 10%

How did O=C(CN1C(=O)CCC1=O)Nc1ccc(S(=O)(=O)N2CCOCC2)cc1 do in these assays?
Anthrax LT inh: 13%; Prx2 Sm inh: >57

What do the screens show for `O=C(Nc1nnc(SCC(=O)N2CCCCC2)s1)C1CCCCC1`?
Anthrax LT inh: -4%; Prx2 Sm inh: >57

What do the screens show for `OC(Cn1cncn1)c1ccc(Cl)cc1Cl` (centres undefined)?
Anthrax LT inh: -8%; Prx2 Sm inh: >57

How did COc1cc(NC(=O)C2CC(=O)NC3=C2C(=O)CC(C)(C)C3)c(OC)cc1Cl (centres undefined) do in these assays?
Anthrax LT inh: -16%; Prx2 Sm inh: >57

What do the screens show for `Cc1ccc(N2CC(C(=O)Nc3ccc(S(=O)(=O)N4CCCC4)cc3)CC2=O)cc1` (centres undefined)?
Anthrax LT inh: -3%; Prx2 Sm inh: >57

What do the screens show for `COc1cc2c(C(=O)NCc3ccc4c(c3)OCO4)cn(CC(C)C)c(=O)c2cc1OC`?
Anthrax LT inh: 3%; Prx2 Sm inh: >57

How did CCOC(=O)N1CCN(Cc2nc(N)nc(Nc3ccc(Oc4ccccc4)cc3)n2)CC1 do in these assays?
Anthrax LT inh: inconclusive; Prx2 Sm inh: >57

Results for COCCn1c(SCC(=O)c2ccc(CNC(C)=O)o2)nc2ccccc2c1=O ?
Anthrax LT inh: 12%; Prx2 Sm inh: >57

Results for CCOC(=O)c1cnc(-n2nc(C)cc2C)nc1-n1nc(C)cc1C ?
Anthrax LT inh: 0%; Prx2 Sm inh: >57

Results for COc1ccc2[nH]c(=O)c(CN(Cc3ccccc3OC)Cc3nnnn3CC3CCCO3)cc2c1 (centres undefined) ?
Anthrax LT inh: 6%; Prx2 Sm inh: >57

What do the screens show for `Cc1ccccc1NC(=O)CSc1nc2c(c(-c3ccco3)c1C#N)CCCC2`?
Anthrax LT inh: 7%; Prx2 Sm inh: >57

Results for COc1ccc(C(CC(=O)O)NC(=O)COc2ccccc2OC)cc1OC (centres undefined) ?
Anthrax LT inh: -10%; Prx2 Sm inh: >57

How did CC(C)n1c(Nc2ccccc2)nc2ccccc21 do in these assays?
Anthrax LT inh: 16%; Prx2 Sm inh: >57

Results for Cc1ccc(-n2c(C)cc(C(=O)OCC(=O)N(CC(C)C)C3CCS(=O)(=O)C3)c2C)cc1 (centres undefined) ?
Anthrax LT inh: -24%; Prx2 Sm inh: >57

Results for COC(=O)COc1ccc(S(=O)(=O)N2CCN(c3ccccc3F)CC2)cc1 ?
Anthrax LT inh: -19%; Prx2 Sm inh: >57

What do the screens show for `CSc1nc(N(CCO)CCO)c2sc3nc(-c4ccco4)c4c(c3c2n1)CCC4`?
Anthrax LT inh: inconclusive; Prx2 Sm inh: >57

How did CCOc1ccc(Cn2c(SCCCCC#N)nc3c2c(=O)n(C)c(=O)n3C)cc1OCC do in these assays?
Anthrax LT inh: -10%; Prx2 Sm inh: >57

Results for O=C1c2ccccc2C(=O)N1Cc1nc2ccccc2c(=O)n1Cc1ccco1 ?
Anthrax LT inh: -11%; Prx2 Sm inh: >57

What do the screens show for `O=C(NCCN1CCN(c2ccccc2)CC1)C1CCCN(S(=O)(=O)c2cnc[nH]2)C1` (centres undefined)?
Anthrax LT inh: -7%; Prx2 Sm inh: >57

What do the screens show for `FC(F)(F)c1cc(-c2cccs2)nc(NCc2ccco2)n1`?
Anthrax LT inh: -11%; Prx2 Sm inh: >57

What do the screens show for `CCN1CCCC1CNC(=O)c1ccc2c(=O)n(CCOC)c(=O)[nH]c2c1` (centres undefined)?
Anthrax LT inh: 8%; Prx2 Sm inh: >57

What do the screens show for `Cc1cc(C(=O)OCC(=O)c2c(N)n(C)c(=O)n(C)c2=O)c(C)n1-c1ccccc1`?
Anthrax LT inh: -20%; Prx2 Sm inh: >57

What do the screens show for `Nc1ccccc1S(=O)(=O)c1ccccc1N`?
Anthrax LT inh: 0%; Prx2 Sm inh: >57

What do the screens show for `c1ccc(-c2nc3ccccc3nc2-c2ccccn2)nc1`?
Anthrax LT inh: 14%; Prx2 Sm inh: >57

What do the screens show for `O=C(NCc1ccco1)c1nc(-c2ccccc2)n(-c2ccccc2)n1`?
Anthrax LT inh: -3%; Prx2 Sm inh: >57

Results for COc1ccc(CC(=O)Nc2cccc(C(=O)O)c2C)cc1 ?
Anthrax LT inh: -1%; Prx2 Sm inh: >57

Results for CN1CCN(CCC(=O)Nc2ccc(F)c(F)c2)CC1 ?
Anthrax LT inh: 2%

Results for CCOC(=O)c1[nH]c(C)c(C(=O)Nc2ccccc2F)c1C ?
Anthrax LT inh: -6%; Prx2 Sm inh: >57

What do the screens show for `Cc1ccnc(N2CCC(C(=O)NCc3ccc4c(c3)OCO4)CC2)n1`?
Anthrax LT inh: inconclusive; Prx2 Sm inh: >57

What do the screens show for `Cc1cccc(-n2ncc3c(Nc4c(C)n(C)n(-c5ccccc5)c4=O)ncnc32)c1`?
Anthrax LT inh: 2%; Prx2 Sm inh: >57

What do the screens show for `O=C1O/C(=C\Br)CC[C@@H]1c1cccc2ccccc12`?
Anthrax LT inh: -1%; Prx2 Sm inh: >26

Results for O=c1[nH]c2ccccc2n1C1=CCCC1 ?
Anthrax LT inh: -14%; Prx2 Sm inh: >57

Results for O=C(c1cc2ncc(Br)cn2n1)N1CCOCC1 ?
Anthrax LT inh: -1%

Results for C#CCCCO/N=C1/C[C@@H](O)[C@@H](O)[C@@H]2[C@@H]3C(=O)N(C4CCCCC4)C(=O)[C@H]3CC[C@@H]12 ?
Anthrax LT inh: 14%[8 µM]

What do the screens show for `CCNc1nc2c(c(=O)[nH]c(=O)n2C)n1CC(C)C`?
Anthrax LT inh: 8%; Prx2 Sm inh: >57

What do the screens show for `Cc1cc(C)n2nc(SCc3cc(=O)n4c(C)cccc4n3)nc2n1`?
Anthrax LT inh: 3%; Prx2 Sm inh: >57

What do the screens show for `CCN(CCCNC(=O)CN1C(=O)COc2ccccc21)c1ccccc1`?
Anthrax LT inh: 7%; Prx2 Sm inh: >57

How did N#CCCN1CCN(S(=O)(=O)c2ccc(S(=O)(=O)NCc3ccccc3)cc2)CC1 do in these assays?
Anthrax LT inh: 6%; Prx2 Sm inh: >57

Results for Cc1ccc(S(=O)(=O)OCC2CN3C(CCC(C)C3c3ccc(Br)cc3)C(=O)O2)cc1 (centres undefined) ?
Anthrax LT inh: -18%&0%&-21%[8 µM]

How did CC(=O)c1c(O)c(C)c(O)c(Cc2c(O)c3c(c(C(=O)/C=C\c4ccccc4)c2O)OC(C)(C)C=C3)c1O do in these assays?
Anthrax LT inh: 16µM*; Prx2 Sm inh: >57&>57

How did CC(=O)Nc1ccc(-c2nn[nH]n2)cc1Cl do in these assays?
Anthrax LT inh: 1%; Prx2 Sm inh: >57

Results for CC(=O)Nc1cc2c(cc1NC(=O)Cn1nc(-c3ccccc3F)ccc1=O)OCCO2 ?
Anthrax LT inh: 12%; Prx2 Sm inh: >57

How did CC(C)Cn1nc(NC(=O)C2CCCO2)c2cc3ccccc3nc21 (centres undefined) do in these assays?
Anthrax LT inh: inconclusive; Prx2 Sm inh: >57

What do the screens show for `Cc1ccccc1N1C(=O)c2ccccc2C1Nc1cccnc1` (centres undefined)?
Anthrax LT inh: -3%; Prx2 Sm inh: >57

How did CCOC(=O)[C@]1(C(/C=C/c2ccco2)NC(=O)OC)CCCC1=O (some centres undefined) do in these assays?
Anthrax LT inh: -11%[8 µM]

How did CC1CCC(C(=O)NC(C(=O)NCCN2CCC(C)CC2)C(C)C)CC1 (centres undefined) do in these assays?
Anthrax LT inh: inconclusive; Prx2 Sm inh: >57

Results for O=C(C1CCCO1)N1CCc2ccccc21 (centres undefined) ?
Anthrax LT inh: 0%; Prx2 Sm inh: >57

What do the screens show for `CC1CC2(CC(C)(C(=O)CSc3n[nH]c(-c4ccccc4Cl)n3)OC2=O)C(=O)O1` (centres undefined)?
Prx2 Sm inh: >57

How did Cc1cc(C)n2nc(SCC#N)nc2n1 do in these assays?
Anthrax LT inh: -3%; Prx2 Sm inh: >57

What do the screens show for `CCOC(=O)N1CCN(C(=O)CN(Cc2ccccc2)S(=O)(=O)c2ccc(OC)c(C)c2)CC1`?
Anthrax LT inh: -5%; Prx2 Sm inh: >57

Assay outcomes (PubChem BioAssay)
